# Source: PubChem BioAssay (several laboratories)
# Vif A3G – HIV-1 Vif–A3G interaction blockers – biochemical, TR-FRET, GST-Vif 1-94, biotin-A3G peptide, dose response retest, primary screen (AID 1117319). TR-FRET GST-Vif / biotin-A3G peptide binding; higher % means a stronger effect; test concentration not given here; strong numbers were not always called active. one-dose inhibition, %; IC50 in µM for titrated hits. 260,000 tested, 0.57% active;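 active means above the screen mean plus three standard deviations and confirmed in dose response; inconclusive means results disagree or hit not tested in dose response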;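 further: Vif residues 1-94 fused to GST binding biotinylated APOBEC3G peptide 110-148; 0% = full assay without inhibitor and 100% = GST in place of GST-Vif; retest series ran down from 100 µM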
# Bfl-1 A1 inh – inhibitors of the anti-apoptotic protein A1, read as caspase activation; MEF A1-2A-BIM cells, Caspase-Glo 3/7 luminescence, 3 h; percent of clofoctol response, vehicle zero; caspase activation, % (test concentration not listed); 330,000 tested, 0.066% active;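 active means over half of replicate activation scores above 10%, or exactly half above 10 with the replicate mean above 10; inconclusive means replicate mean below 10 yet half the replicates above 10; inactive means over half of replicates below 10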;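 further: wells of about 30 µL received 50 nL stock; many hits fall short of the cut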
# rRNA inh HTS – inhibitors of bacterial rRNA selective over humanized ribosomes; E. coli WT GFP vs humanized-ribosome RFP mutants, fluorescence, 24 h; hits give low values; DMSO median 0, no signal -100; GFP signal change (wild-type ribosome), % (no concentration beside the values); 350,000 tested, 1.6% active; AID 720706;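 active means significant combined selectivity score with lowered wild-type GFP, culture density cut under 30%, mutant RFP and density less affected; inactive means any of these conditions unmet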; further: one replicate is shown; some compounds called inactive have numbers as strong as hits
# T cruzi repl – blocks replication of Trypanosoma cruzi | T. cruzi beta-gal in NIH3T3, luminescence, 90 h | inhibition, % (concentration not given with the values) | 300,000 tested, 1.4% active | AID 1885;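 active means mean inhibition across valid replicates above about 55%, limit read from the data; inconclusive means mean below that limit but half or more replicates reach it; inactive means mean below it, under half of replicates reach it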;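 further: signal also drops with host cell toxicity which is not excluded here; 0% = plate median of DMSO wells and 100% = zero luminescence signal; higher percent means less beta-gal luminescence so fewer parasites; stock transfer was 50 nL into about 50 µL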
# Beta apoptosis – blocks beta cell apoptosis | protection from apoptosis, % (concentration not given with the values) | INS-1E cytokine-induced death, ATP luminescence, 48 h; percent of positive-control rescue, neutral wells zero | 300,000 tested, 0.8% active;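 active means all replicates at 75% or more, or half of them and the mean; inconclusive means half reach 75% but not the mean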;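 further: 0% = cytokine-treated negative control wells and 100% = positive control rescue; higher means more ATP so stronger rescue from cytokine killing; wells of about 40 µL received 100 nL stock; the first replicate is given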
# RanGTP-Impb inh – inhibitors of RanGTP-importin-beta interaction, primary screen, biochemical, FRET, CFP-Ran, YFP-importin-beta, homogeneous; cell-free CFP-Ran/YFP-importin-beta FRET ratio; inhibition, % (test concentration not listed); 300,000 tested, 1.1% active; AID 2216;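 active means most replicates above 15%; inconclusive means exactly half above 15%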;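 further: 0% = DMSO wells and 100% = Ran loaded with GDP instead of GTP; wells of about 40 µL received 100 nL stock; the first replicate is given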
# AF4-AF9 inh – inhibitors of human MLL-AF4/AF9 interaction | P42568 | AlphaScreen, biotin-AF4 peptide binding to FLAG-AF9 | inhibition, % at 10 µM | 350,000 tested, 0.47% active;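 active means every replicate reaching a set inhibition limit, whatever the replicate mean, cut at about 25% in these data; inconclusive means mean inhibition reaches that limit but some replicates miss it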;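 further: 0% = plate neutral control median and 100% = total signal loss; the record names both 10 and 1 µM as test concentration; the first replicate is given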
# Target sequence (P42568 whole entry, looked up): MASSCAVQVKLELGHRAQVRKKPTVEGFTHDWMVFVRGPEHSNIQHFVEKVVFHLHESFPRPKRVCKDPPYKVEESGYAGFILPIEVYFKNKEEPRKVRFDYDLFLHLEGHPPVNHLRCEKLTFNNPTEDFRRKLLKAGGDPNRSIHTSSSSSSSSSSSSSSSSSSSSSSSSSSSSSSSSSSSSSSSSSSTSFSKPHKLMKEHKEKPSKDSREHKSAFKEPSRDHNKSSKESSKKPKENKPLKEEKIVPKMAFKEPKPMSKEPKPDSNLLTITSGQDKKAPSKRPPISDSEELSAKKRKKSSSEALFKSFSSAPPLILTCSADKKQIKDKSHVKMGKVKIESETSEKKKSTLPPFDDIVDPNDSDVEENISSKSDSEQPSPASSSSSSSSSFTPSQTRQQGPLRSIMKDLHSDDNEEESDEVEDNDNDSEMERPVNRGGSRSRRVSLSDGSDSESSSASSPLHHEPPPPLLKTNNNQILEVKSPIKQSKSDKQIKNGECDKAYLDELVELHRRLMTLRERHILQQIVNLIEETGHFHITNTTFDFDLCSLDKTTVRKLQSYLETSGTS
# Calb FLC – C. albicans growth modulation with fluconazole; 300,000 tested, 0.57% active; growth inhibition, % (test concentration not listed); C. albicans CaCi-2 (fluconazole-resistant clinical isolate) + fluconazole, Alamar Blue growth, 48 h; AID 1979;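 active means most replicates above 75%; inconclusive means exactly half above 75%; inactive means most below 75%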;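 further: all wells also contain fluconazole at 8 µg/ml as a sub-toxic cotreatment; 0% = median of DMSO wells and 100% = median of geldanamycin control wells; wells of about 8 µL received 7.5 nL stock; the first replicate is given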
# rRNA inh HTS OD600 – further read-out of rRNA inh HTS, marked with its call; OD600 change, %; measured here: OD600 growth;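 optical density of the mix in the first replicate; 0 = DMSO median and -100 = no signal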
# rRNA inh HTS RFP – also measured in rRNA inh HTS; calls as there; RFP signal change, %; measured here: RFP humanized mutant strains;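 first replicate; 0 = DMSO median and -100 = no signal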
# Starred values were filed as active, the others as inactive; ? = inconclusive; nt = no result given; & = joins results of further samples. The list is partial; count on the stated rates, not on these rows.
SMILES,Vif A3G,Bfl-1 A1 inh,rRNA inh HTS,rRNA inh HTS OD600,rRNA inh HTS RFP,T cruzi repl,Beta apoptosis,RanGTP-Impb inh,AF4-AF9 inh,Calb FLC
O=S(=O)(c1ccc(OCC(O)CNC23CC4CC(CC(C4)C2)C3)c(Cl)c1)N1CCOCC1 (stereo unspecified),22%,-1.3,-18,-16,1.3,24,-1,0.7,5.4,-26
O=C(Nc1ccnn1C1CCN(C(=O)c2cc(Cl)ccc2F)CC1)C1CCOC1 (stereo unspecified),nt,0.9,1,-2,-0.6,-5,1,-0.3,3.1,0
CC1CCCN(C(=O)c2cc3c(-c4ccc(Cl)cc4)nn(C)c3s2)C1 (stereo unspecified),15%,0.2,0,2,-3.0,29,nt,-3.2,-5.4,-1
COc1ccc(CN2CCOCCOCCOCCOCC2)cc1,-2%,-0.1,8,1,1.0,4,1,-4.3,nt,-13
CC(C)CCN1CCN(Cc2cn[nH]c2C2CCCCC2)CC1CCO (stereo unspecified),?,-0.6,4,12,1.3,24,-3,2.3,-11,-12
O=C(OCC(=O)N1CCN(C(=O)c2ccco2)CC1)c1sc2ccccc2c1Cl,-4%,0.4,nt,nt,nt,-10,-5,2.9,nt,12
COCc1cc(C)nc(N/N=C/c2ccc(Cl)c(Cl)c2)c1C#N,nt,-0.1,13,3,1.7,-6,-2,nt,-3.3,8
CC1CCN(C(=O)Oc2ccccc2)CC1,-8%,0.3,nt,nt,nt,11,8,0.7,-3.4,1
COc1ccc(NC(=O)C(CCS(C)(=O)=O)NC(C)=O)cc1 (stereo unspecified),4%,0.4,nt,nt,nt,-9,-7,0.0,nt,-8
O=C(O)c1ccc(NC(=O)c2ccccc2NC(=O)c2ccccc2Br)cc1,nt,0.4,3,0,1.6,1,nt,4.8,0.8,17
Cc1ccccc1Oc1ccc(-c2nc(N)nc(N)n2)cc1,3%,-0.2,nt,nt,nt,4,-13,-1.8,nt,?
Cc1ccn2c(=O)nc(SCC(=O)N3CCN(c4ccccc4)CC3)nc2c1,4%,-1.0,5,4,2.0,-2,1,?,0.9,-11
CN1CCN(Cc2nc(Cc3cccc(F)c3)no2)CC1c1ccccc1 (stereo unspecified),nt,0.6,1,-1,0.6,18,-1,-1.7,1.1,-37
CCOc1ccc(NC(=O)CN(C)C(=O)CCCc2nc3ccccc3c(=O)[nH]2)cc1OCC,6%,-0.9,6,9,0.9,-14,0,-2.0,-2.4,-2
N#Cc1c(N)nc(SCc2ccccc2)c(C#N)c1-c1ccco1,2%,-0.4,-43*,-8.7*,-10*,27,-6,1.0,1.1,13
Cc1sc2ncnc(Sc3ccccc3C(=O)Nc3ccc(Br)cc3)c2c1C,-7%,-0.5,nt,nt,nt,26,9,0.1,0.2,-2
NC(=O)c1ccccc1NC(=O)Nc1cccc(Cl)c1,-2%,-0.4,nt,nt,nt,-37,2,-3.2,nt,8
O=C(COc1ccccc1)Nn1cnc2ccccc21,6%,0.9,3,0,-7.1,-13,-4,1.8,-25,-1
Cc1cc(OCC(=O)NCCc2ccc(S(N)(=O)=O)cc2)c2c(C)cc(=O)oc2c1,nt,0.9,6,-6,1.3,-14,1,-1.6,-6.9,-17
O=C(NN1CC(C(=O)OCc2ccc(Cl)cc2Cl)CC1=O)c1ccccc1 (stereo unspecified),-6%,-0.1,-10,0,2.9,3,-6,-1.2,-0.7,-31
COc1ccc(CCNC(=O)c2ccc(OC)c(OC)c2)cc1OC,-8%,0.0,5,4,-2.0,-7,2,?,0.1,0
COCCCNC(=O)CCc1nc(-c2ccccc2)no1,20%,0.4,nt,nt,nt,12,-5,6.0,nt,0
O=C(CSc1nnc(CNC(=O)c2ccccc2)o1)NCc1ccccc1Cl,-1%,-0.3,4,5,1.0,-3,-5,-0.2,0.3,2
Cc1ccc(S(=O)(=O)Oc2cccc(/C=N/n3cnnc3)c2)cc1,nt,1.0,-2,15,22,-9,-1,-4.3,-1.3,4
CC(C)OCCCn1c(-c2ccc(Br)cc2)c[nH]c1=S,23%,-0.6,-12,-1,3.6,9,0,-1.2,-1.4,-39
Cn1c(=O)c2c(nc(CN3CCN(Cc4ccccc4)CC3)n2CCN2CCOCC2)n(C)c1=O,5%,-0.1,nt,nt,nt,20,-1,5.6,nt,-4
CCc1ccccc1NC(=O)CSc1nnc(CCNC(=O)OC(C)(C)C)o1,-1%,-0.6,7,18,-0.3,4,-6,4.2,nt,-9
CC1(C)Cc2c(sc3c2c(=O)n(-c2ccc(Cl)cc2)c(=O)n3CC(N)=O)CO1,2%,-0.2,-5,4,-3.4,nt,0,4.2,nt,13
CSc1nsc(SCC(=O)Nc2ccc(F)cc2F)n1,nt,0.7,-8,-8,-2.1,12,nt,3.2,-5.4,-10
CCc1ccccc1NC(=O)CN1CCN(CC(=O)Nc2ccc(-c3ccccc3)cc2)CC1,nt,0.3,-5,-1,9.6,16,1,0.5,1.1,-24
Cc1ccc(S(=O)(=O)N(CC(O)CN2CCCCC2)c2cccc([N+](=O)[O-])c2)cc1 (stereo unspecified),nt,0.1,-14,0,-0.5,10,-7,-0.4,-4.2,5
O=C(NCCc1ccc(F)cc1)c1coc(=O)c(Br)c1,-7%,-0.5,8,6,-0.5,0,-4,-1.8,-0.8,4
O=C(O)CCC(=O)Nc1ccc(C(=O)N2CCCCC2)cc1,25%,0.6,nt,nt,nt,-13,-6,2.5,nt,-7
CCOc1ccc(NC(=O)[C@@H]2CCCN2C(=O)c2cccs2)cc1S(=O)(=O)N1CCOCC1,3%,-0.8,12,12,3.4,nt,-2,nt,5.5,nt
CCC1Oc2ccccc2N(CC(=O)NCCCN2CCCCC2C)C1=O (stereo unspecified),0%,0.5,nt,nt,nt,-3,3,0.3,nt,-7
CC(C)N(C(=O)C(=O)c1cccn1-c1ccccc1C#N)C(C)C,20%,0.0,nt,nt,nt,-17,11,-0.9,nt,-1
CN(C)S(=O)(=O)c1ccc(N2CCCC2)c(C(=O)Nc2cccc(F)c2)c1,nt,0.1,-6,-5,4.0,2,-5,4.3,-8.3,-19
CN(Cc1ccccc1)S(=O)(=O)c1ccc(Cl)c(C(=O)OCC(N)=O)c1,nt,0.1,-10,-5,-6.1,-14,-5,4.7,6.8,2
O=C1CCCc2ccccc2N1Cc1ccccc1,-7%,-1.0,-28*,-12*,-4.3*,-9,-3,-3.0,1.1,2
O=C(COC(=O)CNC(=O)c1ccco1)Nc1ccc(Cl)cn1,4%,-0.9,nt,nt,nt,-5,-5,1.0,nt,1
COCC(C)n1c(C)cc(C(=O)CSc2nnc(-c3ccco3)o2)c1C (stereo unspecified),-8%,1.9,-4,7,1.2,nt,-2,nt,2.4,nt
COc1cc2c3nnc(-c4ccccc4)c-3cn(Cc3ccc(F)cc3)c2cc1OC,-8%,-0.2,2,-2,1.4,15,-27,35*,1.0,5
O=C1CCN(CCc2ccccc2)CCN1[C@H](COc1ccccc1)c1ccccc1,nt,-0.7,-39,-71,-10,6,5,2.5,2.8,-28
COC(=O)C1CSC(C(=O)OC)N1C(=O)Nc1c(C)cccc1C (stereo unspecified),-5%,0.1,nt,nt,nt,-5,-7,-2.1,nt,?
Cc1cc(N)n2nc(C(F)(F)F)nc2n1,10%,1.7,4,0,-1.7,-3,2,0.3,-0.4,-28
Cc1c(C(=O)NCc2ccc(F)cc2)oc2ccc(S(=O)(=O)N3CCOCC3)cc12,nt,0.5,-1,-20,-2.2,28,-1,-1.2,-0.5,11
COCCN(C(=O)COC(=O)CCn1c(C)csc1=O)c1c(N)n(Cc2ccccc2)c(=O)[nH]c1=O,3%,0.3,-1,13,-3.0,-8,-1,nt,3.4,2
C/C(CC(=O)NC(C)(C)C)=N\NC(=O)c1ccccc1N,nt,0.7,-15,-14,0.1,3,2,-1.7,-1.2,-14
CCc1nnc(NC(=O)c2cc(S(=O)(=O)N3CCN(c4ccccc4)CC3)ccc2Cl)s1,23%,0.3,nt,nt,nt,-2,3,-0.1,nt,8
O=C(O)C1C2C=CC3(CN(C4CCCC4)C(=O)C13)O2 (stereo unspecified),1%,0.0,11,12,2.6,-6,4,?,0.6,25

# (listing goes on)
SMILES,Vif A3G,Bfl-1 A1 inh,rRNA inh HTS,rRNA inh HTS OD600,rRNA inh HTS RFP,T cruzi repl,Beta apoptosis,RanGTP-Impb inh,AF4-AF9 inh,Calb FLC
Cc1cccc(NC(=O)CSc2n[nH]c(-c3ccncc3)n2)c1C,-7%,-0.4,10,13,-2.1,8,1,-3.3,-1.5,-2
Cc1ccc(S(=O)(=O)NCCCNc2ccc([N+](=O)[O-])cc2)cc1,nt,-0.6,-36,-47,-4.9,-27,8,6.6,5.1,6
O=C(NCc1cccs1)c1cccnc1Cl,7%,0.0,nt,nt,nt,1,-5,-2.0,nt,0
CN(C)CCCNC(=O)c1cc2c3ccccc3n(C)c2s1,?,-0.6,nt,nt,nt,74*,2,1.4,nt,?
O=C(CSc1ccc([N+](=O)[O-])cc1)Nc1nnc(C2CC2)s1,-8%,0.2,7,9,2.5,nt,4,nt,-0.5,nt
Cc1ccccc1NC(=O)C1COc2ccccc2O1 (stereo unspecified),nt,-0.1,-1,-4,-0.6,-15,-12,-1.1,-0.5,5
COc1ccc(Cc2nnc(SCc3ccc([N+](=O)[O-])cc3)o2)cc1,22%,-2.1,-2,4,-1.5,17,-18,-1.2,-1.6,13
CSc1nnc(-c2ccc(C(F)(F)F)nc2C)o1,-10%,0.0,4,7,-1.6,0,2,0.1,-0.6,12
O=c1nc(-c2ccccc2)cn[nH]1,-5%,-0.7,nt,nt,nt,-11,2,?,nt,3
OCCC1CN(C2CSCCSC2)CCN1Cc1ccccc1 (stereo unspecified),nt,-0.2,13,12,-4.2,2,-3,-2.6,0.8,-23
Oc1ccc2oc3c(c2c1)CCCC3,1%,-0.4,nt,nt,nt,-14,-1,-2.0,nt,0
O=C(c1ccc(Cl)cc1)C1C2C(=O)N(c3ccccc3)C(=O)C2C2CCCN21 (stereo unspecified),-15%&18%,nt,nt,nt,nt,-15,nt,-30,nt,6
O=C(O)CSCC(=O)N1CCN(c2ncnc3scc(-c4ccccc4)c23)CC1,5%,?,-4,-16,-2.3,0,-7,1.0,-0.7,-9
Cc1cc(=O)[nH]c2c(C)cc(S(=O)(=O)NCc3ccccc3)cc12,nt,0.4,14,15,2.7,-14,-3,-1.8,1.1,-8
O=C1c2ccccc2C(=O)N1CCCCN(C(=O)c1cc([N+](=O)[O-])ccc1Cl)c1ccc(Cl)cc1,nt,-1.1,nt,nt,nt,7,18,2.2,nt,-18
O=C(O)CCSc1nnc(-c2ccc3c(c2)OCO3)o1,-12%,-2.1,nt,nt,nt,-11,-5,0.9,nt,6
COc1ccc(CCOC(=O)c2ccc(N)c([N+](=O)[O-])c2)cc1,nt,0.2,-44,-71,-2.7,18,2,1.0,1.3,0
